Assay outcomes deposited in PubChem BioAssay by National Center for Advancing Translational Sciences (NCATS).
Vaccinia Venus = vaccinia inhibition (Venus reporter); Vaccinia virus Venus reporter expression, fluorescence; Potency, µM (highest dose often 36.5 µM), without a hit: at the highest dose activity change, negative = inhibition, actives largely listed as inhibitors; 0.46% of 330,000 active; AID 720580; active means well fitted inhibition curve with a large enough effect; inconclusive means small, poorly fitted or top-dose-only effect; inactive means no such curve, though single readings can be large or run the other way; tested in A549 cells; note: nearly all actives have a fitted effect of over 30% in size; inactives centre near -10
VACV mCherry inh = inhibitors of vaccinia virus infection (mCherry reporter signal); Vaccinia virus mCherry reporter infection, fluorescence; about a quarter of the inactives have no number; 0.63% of 310,000 active; Potency, µM (titrated, usually from 36.5 µM), without a hit: at the top dose activity change, negative = inhibition, hits mostly inhibitors; active = well fitted inhibition curve with a large enough effect; inconclusive = small, poorly fitted or top-dose-only effect; inactive = no such curve, though single readings can be large or run the other way; tested in A549 cells; note: nearly all actives have a fitted effect of over 35% in size; inactives centre near -10
* hit, by the source's call; i = inactive; ? = inconclusive; / = no result given; & = joins results of further samples; [ ] = remark or other dose. % is set by controls: 0 for no effect and ±100 for the full control effect; potency is the fitted concentration of half-maximal effect. Not a hit list; overall some 0.82% were active at least once.

Structure | Vaccinia Venus | VACV mCherry inh
CCOc1ccc(NC(=O)CN(C)C(=O)CN2C(=O)C3CC=CCC3C2=O)cc1OCC (configuration not stated) | 1% | -21%
O=C(/C=C/c1ccc(Cl)cc1Cl)N(Cc1ccc(Cl)cc1)C1CCS(=O)(=O)C1 (configuration not stated) | -15% | -13%
CC(C)Oc1ccc(C(=O)N(Cc2ccco2)c2ccccn2)cc1 | -2% | -12%
O=C(CCN1C(=O)/C(=C/c2cccs2)SC1=S)NC1=NCCS1 | 4% | 3%
COC(=O)c1sc2ncccc2c1-n1c(C)ccc1C | -8% | -1%
O=C1SCC(c2ccc(Cl)cc2Cl)=NN1Cc1nnc(-c2ccccc2)o1 | -2% | i
CCc1ccc(C(=O)Nc2ccc(OC)c(S(=O)(=O)N3CCOCC3)c2)cc1 | -20% | -25%
Cc1ccc(S(=O)(=O)NCC(=O)N(CC(=O)NCC2CCCO2)Cc2ccccc2)cc1 (configuration not stated) | -4% | /
COc1ccccc1NC(=O)NC1(C(=O)N2CCC(O)CC2)CCCCC1 | -2% | -7%
Cc1ccc(-c2nnn(CC(=O)N(CCN3CCOCC3)C(C(=O)NC(C)(C)C)c3ccc(C)o3)n2)cc1 (configuration not stated) | -12% | 8%
CC(C)CCNC(=O)C(Cc1ccccc1)NS(=O)(=O)c1ccc2c(c1)c(=O)n(C)c(=O)n2C (configuration not stated) | -1%&-16% | -12%&-10%
COc1cc(/C=C(/Sc2nnc(-c3ccc(F)cc3)o2)C(=O)O)ccc1OC(F)F | -2% | -41%
Cc1cc(O)c(NC(=S)NC(=O)c2ccc(-c3ccc(Cl)cc3)o2)cc1C | ? | /
CCOc1ccc(C(c2c(NC(=O)c3ccccc3)sc(C)c2C)N2CCN(C)CC2)cc1 (configuration not stated) | ? | -12%
COc1cccc(OC)c1C(=O)Nc1nnc(C(C)C)s1 | -22% | i
COc1ccc(S(=O)(=O)N2CCCCC2)cc1NC(=O)c1cc([N+](=O)[O-])ccc1N1CCOCC1 | -1% | -5%
COc1ccc(CNC(=O)c2cnc3cc(C)ccn3c2=O)cc1 | -11%&-6% | -11%&-14%
Cc1cc(=O)[nH]c2c1c(C)nn2C(C)(C)C | -9% | i
OCC(O)C1OC(c2ccccc2)OC(CO)C1O (configuration not stated) | -2% | -6%
O=C1c2ccccc2NC(c2cccnc2)N1c1ccccc1F (configuration not stated) | -17% | -24%
COc1ccc(OC)c(N2C(=O)/C(=C/c3ccco3)C(=O)NC2=S)c1 | 9% | 2%
CCOc1ccc(NC(=O)CSc2nc3ccccc3nc2N2CC(C)OC(C)C2)cc1 (configuration not stated) | -14% | ?
O=C(Cc1cccs1)Nc1cccc(-c2nc3ccccc3o2)c1 | -1% | 0%
CC(C)(C)NC(=O)CC1C[C@H](C(=O)N2CCOCC2)[C@@]2(C)c3[nH]c4ccccc4c3CCN2C1=O (some centres not stated) | -7% | -1%
CCN1CCS/C1=C/C=C/C1=[N+](CC)CCS1 | ? | -21%
O=C1c2ccccc2C(=O)N1OCc1ccccc1[N+](=O)[O-] | -4% | -1%
CC1(C)CC(=O)C2=C(C1)OC(N)=C(C#N)[C@@H]2c1ccccc1[N+](=O)[O-] | -14% | -6%
Cc1ccc2nc(-c3ccc(N4C(=NC(=O)CCC(=O)O)SC5CS(=O)(=O)CC54)cc3)sc2c1 (configuration not stated) | -17% | -24%
CCCCOc1ccc(CSC(=N)N)cc1Cl | 1%[7.34 µM] | -9%[7.34 µM]
COc1ccc2cc(C(c3nnnn3CCc3ccccc3)N3CCCC(C)C3)c(=O)[nH]c2c1 (configuration not stated) | -4% | -12%
COCCN(C(=O)COC(=O)c1c(-c2ccccc2)noc1C)c1c(N)n(Cc2ccccc2)c(=O)[nH]c1=O | -10% | -8%
COc1cc2[nH]c(=O)n(C3CCCCC3)c(=O)c2cc1OC | -24% | -20%[1.46 µM]
CC(=O)N(Cc1ccccc1)Cc1nc2sc(C)c(C)c2c(=O)[nH]1 | -9% | 2%
COC(=O)c1cnc(N2CCN(c3ccccc3OC)CC2)c2ccccc12 | -1% | i
C[C@@H]1CN([C@@H](C)CO)C(=O)c2cc(NS(C)(=O)=O)ccc2O[C@@H](C)CCCCO[C@H]1CN(C)Cc1ccc2c(c1)OCO2 | -9% | 5%
O=C(CC1(O)C(=O)c2ccccc2C1=O)c1ccccc1 | -22% | -25%
Cc1ccc(-c2nnc(SCC(=O)N3CCCc4ccccc43)o2)cc1 | -2% | 0%
CCN(C(=O)CSc1nc2ccccc2o1)C1CCS(=O)(=O)C1 (configuration not stated) | -13% | -15%
CCCOc1ccc(/C=C/C(=O)OCC(=O)N(C)c2c(N)n(Cc3ccccc3)c(=O)[nH]c2=O)cc1OCC | -5% | -11%
O=C1C2C3C=CC(C3)C2C(=O)N1Cc1cccnc1 (configuration not stated) | -11% | /
O=P(C(Cl)Cl)(N1CCOCC1)N1CCOCC1 | 3% | -10%
Cc1ccc(S(=O)(=O)Oc2ccccc2/C=N/O)cc1 | -23% | i
CCOc1ccc(NC(=O)CN(c2ccc(C)cc2)S(=O)(=O)c2cccs2)cc1 | -6% | -1%
CC(C)Sc1ncc(Cl)c(C(=O)N(Cc2ccc(N(C)C)cc2)C2CCS(=O)(=O)C2)n1 (configuration not stated) | -16% | -10%
COCCN1CCN(C(=O)C2CCC(=O)N(CCc3ccccc3)C2)CC1 (configuration not stated) | -6% | -15%
Cc1nn2c3c(cnc2c1-c1ccccc1)C(=O)CC(c1ccccc1)C3 (configuration not stated) | -7% | -10%
CC1=C/C(=N\OS(=O)(=O)c2ccccc2)C=CC1=O | 6% | -6%
COC(=O)CCC(=O)Nc1ccc(OC)cc1 | -10% | /
COc1cc2c(cc1Cl)/C(=C\CCN(C)C)c1ccccc1S2 | ? | ?
CC(=O)c1ccccc1NC(=O)CSCc1nc2sc(C)c(C)c2c(=O)[nH]1 | -7% | i
O=C(NC1CC1)c1ccc(-c2nc3ccccc3s2)s1 | 14% | 10%
[2H]c1c([2H])c([2H])c(C(=O)c2sc(N3CCCCCC3)nc2-c2ccccc2)c([2H])c1[2H] | -12% | /
O=C(CCC(=O)n1ncc2ccccc21)N1CCCCC1 | -9% | i
COC(=O)c1ccc2nc(-c3ccc(S(C)(=O)=O)cc3)cn2c1 | -1% | 1%
CSc1ccc(-c2c(C#N)c(N)nc3c2c(C)nn3-c2ccccc2)cc1 | -7% | -16%
CCOC(=O)C(C(=O)Nc1ccccc1)C1CCCCC1 (configuration not stated) | -13% | i
COC(=O)C1=C(N)Oc2c(oc(CO)cc2=O)C1c1ccc(F)cc1 (configuration not stated) | -21% | 0%
CC(=O)c1cccc(-n2c(CCC(=O)O)ccc2-c2cccs2)c1 | -11% | -3%
CCOC(=O)N1CCN(C(=O)CSc2nc(=O)n3cccc(C)c3n2)CC1 | -5% | -3%
COc1cccc(CNC(=O)Cn2c(=O)ccc3cc(S(=O)(=O)N4CCCC4)ccc32)c1 | 4% | 10%

Molecules shown so far containing an aryl thioether with sulfur outside any ring (seven):
Structure | Vaccinia Venus | VACV mCherry inh
COc1cc(/C=C(/Sc2nnc(-c3ccc(F)cc3)o2)C(=O)O)ccc1OC(F)F | -2% | -41%
CCOc1ccc(NC(=O)CSc2nc3ccccc3nc2N2CC(C)OC(C)C2)cc1 (configuration not stated) | -14% | ?
Cc1ccc(-c2nnc(SCC(=O)N3CCCc4ccccc43)o2)cc1 | -2% | 0%
CCN(C(=O)CSc1nc2ccccc2o1)C1CCS(=O)(=O)C1 (configuration not stated) | -13% | -15%
CC(C)Sc1ncc(Cl)c(C(=O)N(Cc2ccc(N(C)C)cc2)C2CCS(=O)(=O)C2)n1 (configuration not stated) | -16% | -10%
CSc1ccc(-c2c(C#N)c(N)nc3c2c(C)nn3-c2ccccc2)cc1 | -7% | -16%
CCOC(=O)N1CCN(C(=O)CSc2nc(=O)n3cccc(C)c3n2)CC1 | -5% | -3%

(more compounds)
Structure | Vaccinia Venus | VACV mCherry inh
CC(=O)Oc1ccccc1C1OCCN1C(C)=O (configuration not stated) | 1% | -6%
COc1ccc(Nc2cc(C(=O)NCCCN(C)Cc3ccccc3)c3ccccc3n2)c(OC)c1 | -6% | -15%
COc1ccc(C2(c3ccc(OC)cc3)NC(=O)NC2=O)cc1 | -8% | i
COc1ccc(/C=N/Nc2ncc(C(F)(F)F)cc2Cl)c(OC)c1OC | -25% | -6%
Cc1ccc2c(=O)cc(C(=O)N(Cc3ccccc3Cl)C3CCS(=O)(=O)C3)oc2c1 (configuration not stated) | -2% | -8%
Cc1cc(NC(=O)c2sccc2C)n(-c2nc3ccccc3[nH]2)n1 | ? | ?
Cc1ccc(-c2csc(N3CCN(c4cc5c(cc4Cl)nc(-c4ccncc4)n5CCN4CCCCC4)CC3)n2)cc1 | ? | ?
COc1ccc(C2=C(Nc3ccc(C)cc3C)c3ccccc3C2=O)cc1 | -6% | -8%
O=C(c1cnn(-c2ccc(F)cc2)c1-n1cccc1)N1CCN(c2ccc(F)cc2)CC1 | 0% | -4%
CC1Cc2ccccc2N1C(=O)CSc1nccc(=O)[nH]1 (configuration not stated) | 2% | -6%
O=C(Nc1c(C(=O)c2ccccc2)oc2ccccc12)c1ccc(F)cc1 | -21% | -14%
CC(=O)N1CC[n+]2c(-c3ccc([N+](=O)[O-])cc3)csc21 | -23% | -29%
O=C(NCCN1CCN(c2cccc(Cl)c2)CC1)Nc1ccccc1 | -16% | -26%
COc1cc(OC)cc(C(=O)Nc2ccc(S(=O)(=O)Nc3nc(C)cc(C)n3)cc2)c1 | -12% | -8%
O=C(O)Cn1cc(C(=O)C(F)(F)F)c2ccccc21 | -1% | i
CC(=O)N1Cc2cc(C(=O)NCc3cccc(F)c3)nc(-c3cccc(C4=CCCCC4)c3)c2[C@H]1CCO | -7% | 19%
CCCc1cc(=S)n2c([nH]c3ccccc32)c1C#N | -5%[7.34 µM] | 9%[7.34 µM]
CC(C)(C)SCCNS(=O)(=O)c1ccccc1 | -4% | -4%
COc1cccc(NC(=O)CN(C)C(=O)C(Sc2ccccc2)c2ccccc2)c1 (configuration not stated) | -29% | ?
CSc1nc(Oc2ccccc2)c2sccc2n1 | -16% | i
CCc1ccccc1NC(=O)CN(c1cc(C(F)(F)F)ccc1Cl)S(=O)(=O)c1ccccc1 | -18% | -15%
CCC(=O)N1Cc2cc(C(=O)NCc3cccc(F)c3)nc(-c3cccc(C4=CCCC4)c3)c2[C@H]1CCO | 3% | 6%
CC12CCC(=O)N1C(C(=O)NCc1ccccc1F)CS2 (configuration not stated) | -4% | -19%
CCC(=O)Nc1nnc(CCc2ccccc2)s1 | -18% | /
COc1ccc(CCNC(=O)CNC(=O)N2CC(=O)Nc3ccccc32)cc1OC | -10% | i
Cc1ccc(CCNC(=O)CN2CCN(Cc3ccc(Cl)cc3)C2=O)cc1 | 18% | 3%
O=C(Cn1c(=O)c2ccccc2n(CC(=O)Nc2ccc(Cl)cc2)c1=O)NCCc1ccccc1 | -3% | -12%
CCc1ccc(S(=O)(=O)Nc2c(NC3CCCCC3)c3ccccc3oc2=O)cc1 | -15% | i
O=C(O)c1ccccc1C(=O)OC1CCCC2CCCC21 (configuration not stated) | -8% | -14%
O=c1[nH]cc(F)c(=O)[nH]1 | -28%&-30% | 5.6µM*
CC1(C)Cc2c(sc3nc(SCC(=O)NCc4ccccc4)n(-c4ccccc4)c(=O)c23)CS1 | 9% | -9%
CCCn1c(=O)c2ccccc2n2c(SCc3c(C(=O)OCC)oc4ccccc34)nnc12 | -13% | -4%
C=CCN1C(=O)C(CC(=O)Nc2ccccc2)SC1=Nc1c(C)n(C)n(-c2ccccc2)c1=O (configuration not stated) | -26% | -8%
CCN(CC)C(=O)c1csc(COCCO)n1 | 6% | -9%
CC(OC(=O)c1ccc(S(=O)(=O)N(C)C)cc1)C(=O)Nc1ccc(Cl)cn1 (configuration not stated) | 6% | i
COc1ccc(NC(=O)C2=C(C)Nc3nc(SCc4ccc(C)cc4C)nn3C2c2cccc(OC)c2OC)cc1 (configuration not stated) | -14% | -23%
O=C(Nc1ccccc1F)c1ccc2c(c1)OCO2 | -8% | i
Cc1cccc(C(=O)Nc2ccc3c(c2)ncn3C)c1 | -12% | -22%
CC(Sc1nnc(COc2ccc(Cl)cc2)o1)C(=O)Nc1ccc(N2CCOCC2)cc1 (configuration not stated) | -8% | -19%
OCCOCCNc1ncnc2c1cnn2-c1ccccc1 | -9% | -3%
CC(=O)Nc1ccc(S(=O)(=O)NCCC(=O)OCc2ccc([N+](=O)[O-])cc2)cc1 | -13% | -4%
CCOC(=O)CNC(=O)CSc1ncccc1-c1nc2ccccc2[nH]1 | -7% | -19%

An excerpt of these results, with each value named:
smiles: O=C(Cc1cccs1)Nc1cccc(-c2nc3ccccc3o2)c1
  Vaccinia Venus: -1%	VACV mCherry inh: 0%
smiles: CC(C)(C)NC(=O)CC1C[C@H](C(=O)N2CCOCC2)[C@@]2(C)c3[nH]c4ccccc4c3CCN2C1=O (some centres not stated)
  Vaccinia Venus: -7%	VACV mCherry inh: -1%
smiles: CCN1CCS/C1=C/C=C/C1=[N+](CC)CCS1
  Vaccinia Venus: ?	VACV mCherry inh: -21%
